CSC inhib – cancer stem cell inhibition. 300,000 compounds, 1.1% hits. cancer stem cell-like cells viability, luminescence. inhibition, % at 7.5 µM;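 active = mean at 75% or more and at least half the replicates too; inconclusive = mean and replicates disagree; tested in HMLE shEcad cells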;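 note: 0% = median of negative and 100% = median of positive control wells; the first replicate is given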
Rce1 inh – blocks yeast Ras-converting enzyme. Q03530. 290,000 compounds, 0.27% hits. calls only. yeast membranes, quenched prenylated peptide cleavage fluorescence;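 active = fall in fluorescence gain of 50% or more versus controls, with final raw signal at or below 3038400; inconclusive = same 50% fall but final raw signal above 3038400; inactive = fall in fluorescence gain under 50%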;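 note: plate controls were neutral control wells for no effect and wells lacking membranes for full effect; tested at 10 µM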
Target sequence (Q03530 whole entry, looked up): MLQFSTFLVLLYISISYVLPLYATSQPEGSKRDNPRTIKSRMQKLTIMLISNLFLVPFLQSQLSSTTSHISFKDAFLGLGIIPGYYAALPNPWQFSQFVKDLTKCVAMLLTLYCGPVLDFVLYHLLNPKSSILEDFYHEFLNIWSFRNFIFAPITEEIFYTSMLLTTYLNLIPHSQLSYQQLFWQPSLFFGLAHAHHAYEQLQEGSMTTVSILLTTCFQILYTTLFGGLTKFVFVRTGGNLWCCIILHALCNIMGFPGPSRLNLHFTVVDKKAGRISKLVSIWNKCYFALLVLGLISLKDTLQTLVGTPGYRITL
Env fusion inh – HIV envelope-mediated fusion inhibition. HeLa-JRFL Env/CEM21 cell fusion, luciferase. inhibition, % at 12.3 µM. 360,000 compounds, 1.1% hits. AID 651610;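 active = mean replicate inhibition score of at least 50 and every replicate individually at or above 50; inconclusive = only one of the two criteria met; inactive = mean below 50 and not all replicates reaching 50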;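 note: 0% = plate neutral controls and 100% = maraviroc near 300 nM; one replicate is shown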
Yeast UUG start – alters start codon recognition fidelity in yeast | S. cerevisiae UUG-firefly luciferase reporter, luminescence/redox ratio | activity score, % at 18.7 µM | 350,000 compounds, 0.13% hits;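 active = replicate mean at a twofold rise or more, about +100% in these data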;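 note: firefly luciferase made from a UUG start codon reports start codon fidelity; reporter light over untreated wells divided by growth signal over untreated wells; some hits fall short of that in this replicate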
eIF4H inh – inhibitors of RNA binding by human eIF4H; Q15056; 290,000 compounds, 0.94% hits; eIF4H fluorescence polarization binding assay; inhibition, % at 35 µM;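 active = 50% or more with normal probe brightness, or confirmed in later tests; inconclusive = above 50% with abnormal brightness, or retests that disagree; inactive = below 50% or failed in later tests; about a fifth of its hits are not listed in these tables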;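 note: calls also rest on retests at 20 µM and on dose response follow-up; 0% = protein and probe with vehicle and 100% = probe without protein; strong numbers were not always called active; many hits fall short of the cut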
PABP polyA inh – PABP-poly(A) binding inhibition. P11940. inhibition, % at 35 µM. AID 2014. PABP-poly(A) RNA binding, fluorescence polarization. 290,000 compounds, 1% hits;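 active = 50% or more with normal probe brightness, or confirmed in later tests; inconclusive = above 50% with abnormal brightness, or retests that disagree; inactive = below 50% or failed in later tests; about a fifth of its hits are not listed in these tables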;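 note: calls also rest on retests at 20 µM and on dose response follow-up; controls were probe without protein and protein plus probe with vehicle; some compounds called inactive have numbers as strong as hits; many hits fall short of the cut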
MT1-MMP act inh – blocks activation of human MT1-MMP. 360,000 compounds, 0.061% hits. AID 651647. HT1080 RFP-PRO-GFP cells, GFP/RFP ratio fluorescence, overnight; percent of plate control window, DMSO zero. P50281. GFP/RFP ratio change, % at 20 µM;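 active = GFP/RFP ratio change of at least 30% with cell ATP level not reduced by more than half and red fluorescence within 50% of control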; note: strong numbers were not always called active
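Assay system: HT1080 cells carrying an RFP-PRO-GFP reporter | Dosing: Single dose of 20 µM compound, 1% DMSO final | Incubation: Cells overnight before dosing, compound overnight, 37 °C, 5% CO2 | Evaluation: GFP/RFP fluorescence ratio | Control set: DMSO and RFP-L50D-GFP cell wells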
eIF4H inh retest – second read-out of eIF4H inh, no call of its own (marks repeat the call); inhibition, %; compound at 20 µM; confirmation average;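 mean of two retest wells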
PABP polyA inh retest – second read-out of PABP polyA inh, no call of its own (marks repeat the call); inhibition, %; compound at 20 µM; confirmation repeats;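 mean of two retest wells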
MT1-MMP act inh RFP – also measured in MT1-MMP act inh; calls as there; RFP signal change, %; measured here: RFP expression control read;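 0 = vehicle wells; hits needed this value within 50% of zero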
* = called active by the depositor; i = inactive; ? = inconclusive; . = no result given. These rows are one share of the data; the hit share may differ from the screen's.

SMILES	CSC inhib	Rce1 inh	Env fusion inh	Yeast UUG start	eIF4H inh	PABP polyA inh	MT1-MMP act inh	MT1-MMP act inh RFP	others
O=C(CCSc1ccccc1)N1CCN(c2ccccc2F)CC1	-1	i	-3	-16	1	-8	3	5
CC(NC(=O)Cn1cccc1)c1ccccc1 (stereo unspecified)	3	i	6	2	90	-4	2	1	eIF4H inh retest=-5;PABP polyA inh retest=13
CC1(C)CC(=O)C(C(c2cccc([N+](=O)[O-])c2)C2C(=O)CC(C)(C)CC2=O)C(=O)C1	-5	i	10	-8	4	-6	4	1
COc1ccc(NC(=O)CSCC(=O)Nc2nnc(CC(C)C)s2)cc1	-9	i	-1	-16	.	.	6	2
O=C1CN(C(=O)CSc2nc3ccccc3c(=O)n2CCCN2CCOCC2)c2ccccc2N1	-3	i	1	.	-6	-4	-2	3
N#Cc1ccc(S(=O)(=O)NC2CC2)cc1	-4	i	6	20	-5	5	-2	2
CN(NC(=O)CN1C(=O)c2ccccc2C1=O)C1=NS(=O)(=O)c2ccccc21	-5	i	-3	-21	-5	4	2	3
COC(=O)CCC(=O)Nc1ccc(NC(C)=O)cc1	16	i	-86	-21	-8	-5	3	6
O=C(NCc1ccco1)C1CCC(CNS(=O)(=O)c2cccc3cccnc23)CC1 (stereo unspecified)	-7	i	-48	-9	-8	10	-8	1
COc1ccc(CCNC(=O)c2noc3c2CCCC3)cc1OC	2	i	-113	-7	-1	-3	6	3
CN(C(=O)c1ccccc1C(=O)OCC(=O)NC(=O)NC(C)(C)C)C1CCCCC1	4	i	7	.	-4	11	-1	1
N#C/C(C(=O)N1CCOCC1)=C1\Nc2ccccc2S1	.	i	-43	-6	2	-2	7	4
COc1ccc(N(CC(=O)Nc2cccnc2)S(=O)(=O)c2ccccc2)cc1Cl	4	i	-1	-6	-4	10	3	1
C/C(N)=C(/C#N)C(=O)CSc1cc(C)c2ccccc2n1	-6	i	18	-17	1	-24	1	5
CCn1c(C)nc2cc(C(=O)N/N=C/c3ccc(OC)cc3)ccc21	-5	i	-3	.	-16	3	4	2
Cc1cnc(CN(C)C(=O)c2ccc3oc(Cc4ccccc4)nc3c2)[nH]1	18	i	16	-21	0	5	1	0
C=CCC1NS(=O)(=O)OC2CCCC12 (stereo unspecified)	-12	i	-16	-11	-7	-1	-5	-1
Cc1nn(C(C)C(=O)N2CCOCC2)c(C)c1[N+](=O)[O-] (stereo unspecified)	4	i	.	.	-1	-4	3	3
COc1ccc(NC(=O)CCC(=O)Nc2nnc(C(C)C)s2)cc1Cl	-5	i	11	-10	-9	0	2	1
O=C(Nc1nc(-c2ccc3c(c2)Cc2ccccc2-3)cs1)c1ccccc1	-9	i	-2	.	6	9	3	4
COc1ccccc1/C=N/NC(=S)Nc1cccnc1	-21	i	17	.	-3	-4	-3	0
COc1ccc(NC(=O)CC(C)CC(=O)NCc2ccc(F)cc2)c(OC)c1 (stereo unspecified)	-14	i	9	-9	10	12	-6	-2
c1ccc(CSc2nncn2-c2ccccn2)cc1	-4	i	7	-8	-4	8	-1	0
COc1ccc2[nH]c(=O)c(CN(C(C)=O)C3CCCCC3)cc2c1	.	i	.	.	-12	-11	5	1
CCCCC1=CC2=C(c3ccco3)C(=O)C(C)(OC(=O)c3ccc(OC)cc3)C(=O)C2=CN1c1ccc(OC)cc1 (stereo unspecified)	34	i	-10	-10	?	?	-23	8
CC(=O)N1CCc2cc(C(=O)CN3CCN(C(=O)c4ccco4)CC3)ccc21	-20	i	.	.	17	13	.	.
COCCCNc1oc(-c2ccccc2F)nc1C#N	-15	i	-10	1	-4	4	4	0
CN(C)c1ccccc1-c1csc(N2CCC(C(N)=O)CC2)n1	-7	.	.	-3	.	.	8	6
CC(=O)NC(c1ccc(C)cc1)c1cc(Cl)c2cccnc2c1O (stereo unspecified)	18	i	23	-8	8	-5	-5	-9
Cc1cccc(NC(=O)Cn2c(=O)oc3ccccc32)n1	-6	i	-5	-6	11	0	0	2
Cc1cccc(N2CN(Cc3cccnc3)CNC2=S)c1	-8	i	.	.	-8	0	-1	6
COc1ccc2[nH]c3c(c(=O)c2c1)CCCC3	.	.	-24	0	.	.	4	5
CCc1ccc2oc(C(=O)Nc3nonc3C)c(C)c2c1	4	i	-181	-4	.	.	1	-11
COc1ccc(OCCN(C)CC(=O)Nc2c(C)cccc2C)cc1	-10	i	7	-5	-14	0	-1	-6
CN(C)S(=O)(=O)N1CCN(S(=O)(=O)c2ccc(F)cc2)CC1	-10	i	-71	5	-10	3	0	1
COc1cc(-n2c(C)nc3cc(C(=O)NCC4CCCO4)ccc32)cc(OC)c1OC (stereo unspecified)	-9	i	-1	-10	3	6	1	2
O=C(Nc1ccn(Cc2c(F)c(F)cc(F)c2F)n1)c1ccc(COc2ccccc2Cl)cc1	14	i	.	.	4	3	.	.
c1ccc(-c2nn3c(Cn4nnc5ccccc54)nnc3s2)nc1	-4	i	-51	-22	70*	47	-1	3	eIF4H inh retest=82*;PABP polyA inh retest=14
CCc1nc2scc(-c3ccc(C)cc3)c2c(=O)n1N	4	.	-17	.	-7	0	-2	3
O=C(N/N=C/c1ccc(O)cc1)c1ccc(COc2cc(Cl)ccc2Cl)o1	68	i	.	-15	-11	-13	0	-13
CCC1CC(CSC(=N)N)OC1=O (stereo unspecified)	-6	i	-11	-19	-9	12	1	4
O=c1[nH]c2ccc(S(=O)(=O)N3CCC(Cc4ccccc4)CC3)cc2o1	28	i	.	-35	-1	10	3	0
CCOC(=O)Cc1csc(NC(=O)CCN2C(=O)c3cccc([N+](=O)[O-])c3C2=O)n1	.	i	-17	-7	3	12	4	2
CN(C)S(=O)(=O)c1ccc(Cl)c(NC(=O)COC(=O)/C=C/c2ccc3ccccc3n2)c1	-4	.	3	-10	.	.	3	3
Cc1sc2ncn(CC(=O)Nc3c(F)cccc3F)c(=O)c2c1S(=O)(=O)N1CCC(C)CC1	.	i	7	.	2	4	-6	2
CCCc1cnc(N2CCN(C(=O)c3c(-c4ccccc4)noc3C)CC2)nc1	-2	i	18	.	-11	1	1	-8
COC(=O)c1ccccc1NC(=O)CSCC(=O)Nc1ccccc1OC	4	i	-22	-23	-14	0	-2	1
C=CCN1C(=O)C(Cc2ccccc2)S/C1=N/N=C/c1cccs1 (stereo unspecified)	0	i	-57	-5	-5	5	-11	-11
CC(C)=CCC(C)(C)C1OCCN1C(=O)c1ccccc1 (stereo unspecified)	-14	i	-9	-17	-12	9	-2	-8
COc1cccc(CN2CC(C(=O)NCc3cccc(N4CCCC4)c3)CCC2=O)c1 (stereo unspecified)	-4	i	-6	9	-21	-10	-17	2
CCC(CC)NC(=O)CO/N=C/c1ccccc1OC(F)F	2	i	-7	-15	7	2	3	1
COc1ccc2cc(C)c3nnc(SCC(=O)Nc4cc(OC)c(OC)cc4C(=O)O)n3c2c1	6	i	8	4	-8	-4	2	2
COC(=O)CCSc1cc(NCCOC(C)=O)c([N+](=O)[O-])c2nonc12	-1	i	6	.	6	-12	5	3
CC(=O)Nc1ccc(-c2nc(C)c(C(C)=O)n2O)cc1	-6	i	.	-5	-10	1	8	-3
COc1ccc(S(=O)(=O)N2CCCc3ccccc32)cc1[N+](=O)[O-]	68	i	1	-6	-3	-5	-1	-4
COc1ccccc1NC(=O)COc1ccc(Br)cc1CNC1CCCC1	-18	.	-26	.	3	-3	-2	-2
Cc1ccc(NC(=O)c2ccn(C)n2)c(Br)c1	4	i	.	-29	7	10	0	0
O=C(N/N=C/c1ccccc1)C1CCCN1C(=O)c1cc([N+](=O)[O-])cc([N+](=O)[O-])c1 (stereo unspecified)	-12	i	14	23	-7	-4	-1	1
CCOC(=O)C[C@H]1c2ccc(C(F)(F)F)cc2S(=O)(=O)N1c1cccc(OC)c1	-14	i	9	4	.	.	0	-4
CC(C)Sc1n[nH]c(=O)n1-c1cccc(C(F)(F)F)c1	-12	i	-10	-20	-4	2	0	5

Continuation:
SMILES	CSC inhib	Rce1 inh	Env fusion inh	Yeast UUG start	eIF4H inh	PABP polyA inh	MT1-MMP act inh	MT1-MMP act inh RFP	others
CC1CCC2(CC1)NC(=O)N(CC(=O)N1c3ccccc3CC1C)C2=O (stereo unspecified)	-10	.	27	1	.	.	-1	-1
COc1ccccc1NC(=O)C(=O)c1cn(CC(=O)N2CCOCC2)c2ccccc12	0	i	-31	-5	-3	54	-3	3	eIF4H inh retest=-5;PABP polyA inh retest=-1
NC(=S)N/N=C/c1ccc(/C=N/NC(N)=S)cc1	13	i	-15	-25	3	2	1	-3
Cc1noc(C)c1NC(=O)N(C)C[C@H]1Oc2ccc(NC(=O)NC(C)C)cc2C(=O)N([C@H](C)CO)C[C@H]1C	5	.	-16	-27	.	.	0	1
CCCNC(=O)c1[nH]c(C)c(C(C)=O)c1C	9	i	-51	-12	5	-12	-3	5
Cc1nc(SCc2ccc(O)c([N+](=O)[O-])c2)n[nH]1	6	i	-8	.	-8	-7	3	5
CN(C)NC(=S)Nc1ccc2nc(-c3ccccn3)c(-c3ccccn3)nc2c1	-1	i	-26	-27	?	-1	-9	-2
CCOC(=O)c1c(CN2CCOCC2)n(-c2ccccc2)c2cc(Br)c(O)c(CN(C)C)c12	-5	i	.	-4	26	-6	-2	-3
O=C(c1ccc(Cl)cc1)N1CCN(c2ccc([N+](=O)[O-])c(NCc3cccnc3)c2)CC1	5	i	35	-11	.	.	11	-16
NC(=O)CSc1ncc(-c2ccccc2)[nH]1	-9	i	.	-11	-2	5	7	-1
CCCCN(CCCC)S(=O)(=O)c1c(C)[nH]c(=O)[nH]c1=O	-2	i	11	.	0	19	0	1
CC(C)NC1=C(Cl)C(=O)c2ccccc2C1=O	31	i	.	-30	-2	25	2	2
O=C1CCc2cc(S(=O)(=O)NC(C(=O)N3CCN(c4ccccn4)CC3)c3ccccc3)ccc2N1 (stereo unspecified)	3	i	-5	.	3	-9	2	2
CCCNC(=O)C1=C(C)C(=O)OC12CCC(C)CC2 (stereo unspecified)	1	i	6	-12	-6	-23	0	4
CC1CCCC(C)N1CCCNC(=O)CCn1c(=O)c2cccn2c2cccnc21 (stereo unspecified)	1	i	-9	-5	.	.	-1	2
COc1ccc(CCNC(=O)c2ccc3nc(N4CCCCC4)sc3c2)cc1OC	2	i	-10	-20	-6	-10	1	-8
CCC(=O)N1CCc2cc(S(=O)(=O)N3CCCC3)ccc21	-12	i	-2	-12	.	.	0	1
Cc1ccc(NC(=O)CSc2nc3ccccc3nc2N2CCOCC2)cc1	25	i	15	-19	3	-11	0	1
Cc1ccc(-c2n[nH]c3c2CCC3)cc1	2	i	-380	-23	-1	-2	-3	-1
CC(C)N1CN(c2ccccc2)C(=S)N(c2ccccc2)C1	14	i	9	-13	-5	-11	2	3
